Compound activity: PubChem BioAssay, National Center for Advancing Translational Sciences (NCATS)
NS1 inh: blocks influenza NS1 protein function; S. cerevisiae slowed by influenza A NS1, growth recovery by OD600; hit rate 0.4% among 270,000; Potency, µM (highest dose often 46.1 µM), inactives show at the top dose activity, positive = more growth; AID 2326; active means well fitted rising curve with a large enough effect; inconclusive means small, poorly fitted or top-dose-only effect; inactive means no such curve, though single readings can be large or run the other way; further: nearly all actives have a fitted effect of over 50% in size
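S. cerevisiae expressing influenza A NS1, grown in glucose, washed, then diluted 1:100 into pH 6.0 -URA galactose medium with 23 nl compound. Growth recovery read as OD600; NS1-free strain serves as control.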
Cruzain inh Det: blocks cruzain activity in presence of Triton detergent. purified cruzain, Z-FR-AMC fluorescence, 0.01% Triton. Potency, µM, without a hit: max response, negative = inhibition, actives largely listed as inhibitors. AID 1478. hit rate 0.43% among 200,000. P25779;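 further: plate controls were neutral wells for no effect and buffer without enzyme for full effect; nearly all actives have a fitted effect of over 40% in size; top concentration of the series not given in the record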
Target sequence (P25779 123-467 limits assumed): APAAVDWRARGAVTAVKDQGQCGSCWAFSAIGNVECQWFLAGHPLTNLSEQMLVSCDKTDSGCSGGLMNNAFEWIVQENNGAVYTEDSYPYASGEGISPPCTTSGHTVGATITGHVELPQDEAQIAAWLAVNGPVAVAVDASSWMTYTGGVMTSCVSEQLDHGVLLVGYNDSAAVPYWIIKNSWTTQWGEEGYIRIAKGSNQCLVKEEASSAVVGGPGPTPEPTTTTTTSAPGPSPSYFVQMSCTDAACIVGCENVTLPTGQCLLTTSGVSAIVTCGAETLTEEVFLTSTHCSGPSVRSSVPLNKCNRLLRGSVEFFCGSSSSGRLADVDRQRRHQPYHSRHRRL
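Steps: dispense cruzain (1.5 nM final) in acetate buffer pH 5.5 with DTT and 0.01% Triton X-100; pin-transfer compounds; incubate 15 min RT; add Z-FR-AMC (2 uM final); read fluorescence every 30 s, using the 60 s intensity change.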
Lassa entry inh: inhibitors of Lassa virus binding or cell entry. Lassa virus pseudotype entry inhibition, cell reporter; control for the full effect not named in the record. Potency, µM (highest dose often 37.9 µM), inactives show at the top dose activity change, negative = inhibition, usual class: inhibitors. hit rate 1.2% among 300,000. AID 540256; active means well fitted inhibition curve with a large enough effect; inconclusive means small, poorly fitted or top-dose-only effect, or effect the other way; inactive means flat fitted curve, though single readings scatter; tested in HEK293 cells; further: on the % scale 0 is the no-effect control and ±100 the full control effect; nearly all actives have a fitted effect of over 50% in size; luciferase read-out
RE007 growth inh: less growth of the S. pombe RE007 Vpr strain. hit rate 0.21% among 360,000. Potency, µM (highest dose often 92.2 µM), for inactives: top-dose activity change, negative = less growth. S. pombe RE007 Vpr strain, BacTiter-Glo ATP luminescence, 24 h; control for the full effect not named in the record; active = well fitted falling curve with a large enough effect; inconclusive = small, poorly fitted or top-dose-only effect; inactive = no such curve, though single readings can be large or run the other way;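 further: on the % scale 0 is the no-effect control and ±100 the full control effect; nearly all actives have a fitted effect of over 50% in size; the assay follows cell death caused by Vpr and the record does not say whether a fall means rescue or toxicity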
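Fission yeast RE007 carrying one integrated HIV-1 vpr copy, seeded at OD 0.01 in PMG+AL medium with 23 nL pinned compound. Grown 24 h at 30 degrees; viability read by BacTiter-Glo luminescence after 5 min.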
Marburg entry inh: inhibitors of Marburg virus binding or cell entry; hit rate 1.8% among 300,000; AID 540276; Potency, µM (titrated, usually from 37.8 µM), for inactives: top-dose activity change, negative = inhibition, hits mostly inhibitors; Marburg virus pseudotyped entry inhibition, cell reporter; control for the full effect not named in the record; about a third of the inactives were read at about 46 µM; active = well fitted inhibition curve with a large enough effect; inconclusive = small, poorly fitted or top-dose-only effect, or effect the other way; inactive = flat fitted curve, though single readings scatter; tested in HEK293 cells; about a fifth of its hits are not listed in these tables; further: on the % scale 0 is the no-effect control and ±100 the full control effect; luciferase read-out
SARS PLP yeast: blocks SARS-CoV papain-like protease in a yeast assay. S. cerevisiae expressing SARS-CoV PLpro, growth rescue; control for the full effect not named in the record. Potency, µM (series often up to 32.9 µM), for inactives: at the highest dose activity, positive = growth rescue. hit rate 0.19% among 330,000. AID 485353; active means well fitted rising curve with a large enough effect; inconclusive means small, poorly fitted or top-dose-only effect; inactive means no such curve, though single readings can be large or run the other way; further: 0% is about no effect; nearly all actives have a fitted effect of over 55% in size; growth read by luminescence after 48 h
Cruzain noTriton: blocks cruzain activity in detergent-free assay | purified cruzain, Z-FR-AMC fluorescence, no detergent | hit rate 2.3% among 200,000 | Potency, µM, for inactives: max response, negative = inhibition, hits mostly inhibitors | AID 1476;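 further: plate controls were enzyme without inhibitor for no effect and buffer without enzyme for full effect; nearly all actives have a fitted effect of over 40% in size; top concentration of the series not given in the record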
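Detergent-free condition (0.00005% Triton X-100) in acetate buffer pH 5.5 with DTT. 1.5 nM enzyme and compound were pre-mixed 15 min, then 2 uM Z-FR-AMC substrate added; reaction progress from fluorescence change between first and third reads (60 s).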
2A StopGo: lowers the luciferase signal of an FMDV 2A StopGo reporter; human cells with a luciferase reporter of 2A StopGo recoding; control for the full effect not named in the record; Potency, µM (highest dose often 57.9 µM), for the others: at the highest dose signal change, negative = less light; hit rate 1.2% among 410,000; active = well fitted falling curve with a large enough effect; inconclusive = small, poorly fitted or top-dose-only effect; inactive = no such curve, though single readings can be large or run the other way; tested in HEK293T cells; further: on the % scale 0 is the no-effect control and ±100 the full control effect; nearly all actives have a fitted effect of over 45% in size; luciferase light after 4 h
* marks the source's active call; other numbers are inactive results; ? = inconclusive; . = no result given; & = joins results of further samples; [ ] = another dose, or the depositor's remark. Unless noted, the call rests on the fitted dose curve; in most records, active means well fitted curve in the direction sought with a large enough effect; inconclusive means small, poorly fitted or top-dose-only effect, or another doubt; inactive means no such curve, though single readings can be large; an effect the other way counts as inactive or inconclusive. Potency means the concentration at half of the fitted maximal effect.

SMILES	NS1 inh	Cruzain inh Det	Lassa entry inh	RE007 growth inh	Marburg entry inh	SARS PLP yeast	Cruzain noTriton	2A StopGo
CC1(C)N=C(N)N=C(N)N1CCCCc1ccccc1	-14%	1.4%	?	2%	?	.	0%	0%
Cc1c(-n2cc(C(=O)c3cc(F)ccc3O)cc(C#N)c2=O)c(=O)n(-c2ccccc2)n1C	.	.	1%	-5%	-3%[46.1 µM]	?	.	-5%
CN(C(=O)CSc1nnc(N)s1)C1CCCCC1	6%	.	.	-4%	.	2%	.	17%
Cc1ccc(C(=O)C[n+]2cc(-c3ccccc3)n3c2CCCCC3)cc1	-8%&8%	-1.5%&-0.6%	-10%&-14%	12%&-12%	-32%&-16%	-5%&1%	-4%&-6%	?
CN(C)c1ccc(C(CNC(=O)Cc2cccc3ccccc23)N(C)C)cc1 (stereo not drawn)	-8%	.	.	17%	.	-13%	.	-15%
CN(c1ccccc1)S(=O)(=O)c1ccc(C(=O)Nc2nnc(C3=COCCO3)o2)cc1	0%	.	.	14%	.	12%	.	-10%
COc1ccc2[nH]c(C(=O)NCCN3CCOCC3)cc2c1	-2%	.	.	0%	.	0%	.	6%
CCNc1nc(OCC)nc(N2CCC(Cc3ccccc3)CC2)n1	-8%	-7.7%	-8%	-2%	-15%	-10%	4%	-16%
Oc1ccccc1/C=N/n1c2ccccc2c2ccccc21	23%	-3.8%	-17%	-7%	12%	-2%	-29%	.
Cc1ccc(-c2nc3c(c(=O)c4ccccc4n3C)c(=O)n2Cc2ccco2)cc1	7%	.	?	-12%	?	1%	.	?
CC(=O)c1cccc(CN2CCCC(N3CCN(c4ccccc4F)CC3)C2)c1 (stereo not drawn)	8%	.	.	3%	.	-3%	.	-24%
CCCCCCc1nc2ccccc2c(=O)n1NC(=O)c1c(O)c2c(n(CC(C)C)c1=O)CCCC2	0.4µM*	-7.6%	?	9%	-3%[46.1 µM]	8%	?	-4%
Cc1cccc(N(CC(=O)Nc2c(C)n(C)n(-c3ccccc3)c2=O)S(C)(=O)=O)c1	6%	-2.9%	15%	17%	18%	8%	1%	-20%
COc1cccc(NC(=O)Nc2ccccc2SC)c1	-10%	.	1%	-19%	0%	-2%	.	36%[activator]
CCOC(=O)c1c(-c2ccccc2)c[nH]c1C	.	.	-11%[46.1 µM]	10%	-27%[46.1 µM]	.	.	49%[activator]
CCOc1ccc(OCC(O)CN2CCc3ccccc3C2)cc1 (stereo not drawn)	0%	.	.	-11%	.	-1%	.	1%
CC(=O)Nc1ccc(N2C(=O)CC(c3ccccc3)CC2=O)cc1	3%	6.3%	0%	-1%	-13%	7%	-5%	-11%
Cc1ccc(NC(=O)Cn2ccn(-c3ccccc3)c(=O)c2=O)cc1	.	-1.3%	-13%[46.1 µM]	.	.	.	1%	-8%
Brc1ccc2ncnc(NCc3cccnc3)c2c1	-3%	.	8%	-7%	-29%	-1%	.	?
COc1ccc(-n2nc(C(=O)N3CCN(c4cccc(C)c4)C(C)C3)c3c4ccccc4n(C)c3c2=O)cc1Cl (stereo not drawn)	.	-1.2%	24%[46.1 µM]	.	3%[46.1 µM]	.	-8%	-6%
CC[C@H](CO)Nc1nc(Nc2cccc(Cl)c2)c2ncn(C(C)C)c2n1	-1%	.	.	5%	.	-1%	.	7%
Cc1nn(-c2ccccc2)c(N2CCCC2)c1/C=N/NC(=S)Nc1cc(C(F)(F)F)ccc1Cl	13%	-3.9%	5%	11%	10%	5%	10µM*	4%
Cc1cc(NC(=O)COc2ccccc2C)ccc1NC(=O)c1cccs1	-17%	.	.	-10%	.	-3%	.	-24%
CSc1ccc(/C=N/NC(=O)CN2CCN(Cc3ccc(C)cc3)CC2)cc1	-4%	-8.9%	-11%	.	-14%	-8%	4%	5%
O=C(CSc1ncnc2nc[nH]c12)c1ccc([N+](=O)[O-])cc1	1%	.	-27%	14%	?	0%	.	-3%
CSC1=NCCN1C(=O)c1ccc(S(=O)(=O)N(C)C)cc1	-32%	9.0%	.	21%	0%	5%	1%	-23%
CCOC(=O)c1c(C)n(C)c2cc([N+](=O)[O-])c(O)c([N+](=O)[O-])c12	-7%	.	.	-13%	.	-1%	.	-25%
Cc1ccc(CN=C2Nc3ccccc3CS2)cc1	-20%	-10%	?	-20%	?	4%	-10%	-51%
COc1cc(-c2nc(CN(C)Cc3nnc(C)o3)c(C)o2)ccc1F	0%	.	-12%[46.1 µM]	-12%	-9%[46.1 µM]	1%	.	-15%
CC(=O)/C(N=Nc1cc2c(cc1[N+](=O)[O-])OCCO2)=C(\C)O	3%	.	1%	77%	11%[46.1 µM]	-4%	.	-5%
Cc1cc(C(=O)OC(C)C(=O)Nc2nc(-c3ccccc3)cs2)c(C)o1 (stereo not drawn)	2%	-2.1%	13µM*	0%	?	-9%	-26%	.
CC(C)CCNC(=O)c1ccc(C2SCC(=O)N2Cc2ccco2)cc1 (stereo not drawn)	11%	-6.9%	?	15%	-2%	13%	-18%	-17%
COc1ccc(-c2nnc(SCC(=O)N(C)C3CCS(=O)(=O)C3)n2C(C)C)cc1 (stereo not drawn)	.	.	17%[46.1 µM]	2%	0%[46.1 µM]	0%	.	0%
COc1ccc(C(=O)Nc2ccc(S(=O)(=O)Nc3cnc4ccccc4n3)cc2)cc1	13%	.	16%	2%	?	-2%	.	33%[activator]
Cc1cc(NS(=O)(=O)c2ccc(NC(=O)C(F)(F)F)cc2)nc(C)n1	0%	.	10%[46.1 µM]	12%	?	-3%	.	72%[activator]
O=C(NCC1CCN(Cc2ccccc2F)CC1)Nc1cc(F)ccc1F	8%	.	-26%[46.1 µM]	3%	?	-3%	.	5%
COc1cc(CNc2ccc3[nH]c(=O)[nH]c3c2)ccc1OCc1ccccc1	19%	.	.	-11%	.	-6%	.	?
COc1ccc([N+](=O)[O-])cc1N(CC(=O)NCC1CCCO1)S(C)(=O)=O (stereo not drawn)	4%	-4.7%	22%	14%	7%	1%	1%	-6%
COc1ccccc1N(CC(=O)NCc1cccnc1)S(C)(=O)=O	1%	7.9%	5%	-1%	5%	1%	-5%	.
CCCNC(=O)N1CCC2(CC1)OCCO2	.	.	?	14%	?	0%	.	3%
CCN(CC)S(=O)(=O)c1ccc2c(c1)c(=O)c(C(=O)N1CCN(c3ccccc3OC)CC1)cn2C	.	-3.7%	-1%[46.1 µM]	.	9%[46.1 µM]	.	?	6%
CN(Cc1nnc(SCC(=O)NCCc2ccccc2)n1C)S(=O)(=O)c1ccccc1	-6%	4.6%	7%	-7%	6%&6%	-5%	26%	?
CC(C)c1cc(CNC(=O)c2cc(COc3cncc(Cl)c3)on2)on1	-17%	.	.	-10%	.	-13%	.	1%
N#CCCSc1nc(N2CCOCC2)c2c(c1C#N)CCCC2	-52%	-5.9%	?	2%	-4%	0%	21%	?
COc1ccc(C(=O)Nc2ccccc2C(=O)N2CCCCCC2)cc1	-5%	.	2%	1%	-8%	-1%	.	-6%
COc1ccccc1Oc1ccc2c(c1)C(=O)N(c1cccc(O)c1)C2=O	-13%	-3.9%	?	-12%	10%	-12%	4%	2%
Cc1ccc(C(C)C)c(OCc2ccc(C(=O)N/N=C/c3ccc(C(=O)O)cc3)cc2)c1	-46%	.	.	26%	.	-1%	.	-23%
Cc1ccc(C)c(NC2=NC3(CCCCC3)N=C(N)N2)c1	0%	1.6%	24%	0%	-17%&-17%	-18%	-9%	14%
CCOc1ccccc1NC(=O)C1CCCC1	.	.	11%[46.1 µM]	14%	-1%[46.1 µM]	.	.	15%
CCCOP(=O)(c1ccc(N(C)C)cc1)C(O)c1ccc(Cl)cc1Cl (stereo not drawn)	9%	.	?	1%	?	-4%	.	-17%
CCOc1ccc(OCCC(=O)OCC(=O)NNC(=O)c2ccccc2)cc1	.	.	12%	1%	6%[46.1 µM]	0%	.	-15%
CCOC(=O)c1nnn(CC(=O)Nc2cccc(OC)c2)c1C(=O)OCC	2%	1.7%	-2%	5%	-17%	8%	-2%	-19%
Cc1ccc(NC(=O)c2oc3ccccc3c2NC(=O)C2CCCCC2)cc1	.	2.1%	-1%[46.1 µM]	.	7%[46.1 µM]	.	-7%	0%
Cn1c(SCC(=O)NC(c2ccccc2)c2ccccc2)nnc1-c1cccs1	-6%	3.0%	-23%	10%	-14%[46.1 µM]	-5%	-6%	2%
C#CCSC1=C(C#N)C(c2cccs2)C(C(=O)OCC)=C(C)N1 (stereo not drawn)	4%	-7.4%	5%	2%	0%	-8%	20µM*	-1%
Cc1cc(C)c(NC(=O)CSc2ccnc(=O)[nH]2)c(C)c1	.	-1.5%	10%[46.1 µM]	.	.	.	-7%	-25%
O=C(Nc1cnn(Cc2ccccc2)c1)c1nc2ncccn2n1	0%	-2.2%	1%	-6%	1%	10%	-6%	45%[activator]
CC(OC(=O)Cc1ccc(Br)cc1)C(=O)NC1CCCCC1C (stereo not drawn)	-7%	.	4%	-16%	8%	3%	.	-20%
Cc1ccc2c(c1)c1c3n2CCN=C3CCC1	1%	-2.6%	12%	-17%	?	-4%	-15%	1%
CCc1noc(C)c1C(=O)Nc1nc(-c2ccc(Cl)cc2Cl)cs1	11%	-6.1%	-10%	-15%	?	-6%	-5%	?

Compounds were not picked by outcome; about 4.6% have a hit in one of these screens.
